# RGS16-Gao = RGS16-Galphao interaction regulator (human); 0.38% of 220,000 active; AID 1441; bead-based flow cytometry RGS16-Galphao binding, fluorescence; actives lie on both sides; binding response (% of control), % at 10 µM; O15492+P09471;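 active = below 25% or above 175%, edge rows of some plates excepted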;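 also: Galphao activated by GDP with aluminum fluoride before binding; 100% = wells without compound and 0% = beads without RGS; some results beyond the cut were filed as inactive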
# PKD1 inh = inhibitors of human PKD1 kinase | PKD1 kinase fluorescence polarization assay | 0.056% of 200,000 active | Q15139 | inhibition, %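 (about 10 µM by stock and volumes)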;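 active = inhibition of 50% or more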;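 also: controls were vehicle for no effect and a reference inhibitor for full effect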
# Target sequence (Q15139 whole entry, looked up): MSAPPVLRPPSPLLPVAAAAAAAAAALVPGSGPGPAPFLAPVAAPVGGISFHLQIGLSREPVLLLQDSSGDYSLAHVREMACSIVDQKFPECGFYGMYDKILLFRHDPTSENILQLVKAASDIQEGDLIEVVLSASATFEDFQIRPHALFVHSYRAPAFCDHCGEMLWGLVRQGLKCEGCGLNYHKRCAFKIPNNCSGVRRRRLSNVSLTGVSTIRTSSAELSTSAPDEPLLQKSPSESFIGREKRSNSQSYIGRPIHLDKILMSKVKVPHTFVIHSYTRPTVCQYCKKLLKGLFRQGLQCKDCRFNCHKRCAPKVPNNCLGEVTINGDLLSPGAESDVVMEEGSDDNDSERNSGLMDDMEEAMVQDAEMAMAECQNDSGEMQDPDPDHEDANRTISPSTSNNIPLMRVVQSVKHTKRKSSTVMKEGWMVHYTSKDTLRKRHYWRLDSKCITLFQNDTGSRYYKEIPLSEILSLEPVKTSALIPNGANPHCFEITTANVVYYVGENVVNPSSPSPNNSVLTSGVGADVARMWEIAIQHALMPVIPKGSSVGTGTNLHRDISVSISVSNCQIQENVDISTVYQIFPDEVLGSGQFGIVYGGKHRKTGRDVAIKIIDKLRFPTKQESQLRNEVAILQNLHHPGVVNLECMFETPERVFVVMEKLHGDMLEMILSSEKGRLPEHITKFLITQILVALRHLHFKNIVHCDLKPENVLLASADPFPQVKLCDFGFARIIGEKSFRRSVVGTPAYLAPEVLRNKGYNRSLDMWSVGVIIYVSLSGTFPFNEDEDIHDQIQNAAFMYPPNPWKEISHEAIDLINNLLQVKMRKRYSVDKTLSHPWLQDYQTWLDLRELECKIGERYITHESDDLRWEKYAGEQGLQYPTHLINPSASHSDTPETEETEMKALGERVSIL
# GALR2 ag = GALR2 (human) receptor agonism | AID 803 | 0.48% of 140,000 active | activation, %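 (tested at 5 µM)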 | GALR2-expressing cells, agonist activation read-out | O43603;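 active = above mean plus 3 SD of all compounds, about 5% in these data, not always enough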;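 also: 0% = vehicle buffer wells and 100% = reference agonist at full effect; tested in CHO reporter cells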
# HSV replic up = increases HSV replication in cells. HSV replication augmentation in cells, fold increase. maximum fold increase. 0.005% of 220,000 active. AID 1956;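 active = peak rise of 1.5-fold or more in the series; inconclusive = self-fluorescent or not available for retest; tested in PC3 cells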;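 also: first round at 10 µM; read as green reporter fluorescence; hits show the peak of a series up to 25 µM; 1 = signal of infected wells without compound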
# INS promoter inh = TRM-6 insulin promoter activity inhibition | TRM-6 cells (human fetal islet line), insulin promoter-eGFP reporter, imaging; reporter expression induced with tamoxifen | inhibition, % at 2 µM | 0.9% of 130,000 active | AID 1273;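 active = inhibition above the mean plus 3 SD, with well images judged a real hit on visual review, cut at about 60% in these data, passing the limit was not always enough; inconclusive = inhibition over the cutoff but images rejected on review; inactive = inhibition not above the cutoff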
# INS promoter inh cell count = further read-out of INS promoter inh, marked with its call; normalized cell count, %; measured here: cell count, toxicity; reference of the scale not given here;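 cells exposed to compound for 48 h; stained nuclei by imaging scaled within each plate; lower means fewer cells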
# HSV replic up primary fold = recorded beside HSV replic up, whose call it bears; fold increase; compound at 10 µM; measured here: primary screen fold increase 10 uM; tested in PC3 cells;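 GFP signal in the first replicate; 1 = infected wells without compound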
# Active calls of the source: *; i = inactive; ? = inconclusive; · = not tested or not shown.
SMILES,RGS16-Gao,PKD1 inh,GALR2 ag,HSV replic up,HSV replic up primary fold,INS promoter inh,INS promoter inh cell count
CCN(CC)C(=O)c1cn(C)c(=O)c2cc(OC)c(OC)cc12,97,3,-1.6,i,0.94,19,97
Nc1nc(SCC(=O)Nc2cc(S(=O)(=O)N3CCOCC3)ccc2Cl)n[nH]1,99,-4,·,i,0.91,·,·
O=c1[nH]nc(SCCS(=O)(=O)c2ccc(F)cc2)n1-c1ccccc1,100,·,·,i,1.1,·,·
CC(=O)N(c1ccccc1)c1nnc(-c2cnc(C)cn2)s1,107,-2,·,i,0.93,·,·
O=Cc1c[nH]c2ncccc12,104,·,·,i,0.93,·,·
Cc1nnc(SC(C)C(=O)Nc2ccc(S(=O)(=O)N3CCCCC3)cc2)s1 (stereo unspecified),100,-6,-1.2,i,0.75,·,·
Cc1cc(NC(=O)CN2CCCC2c2nc3ccccc3s2)no1 (stereo unspecified),101,-10,-1.0,i,0.9,·,·
COC(=O)/C(=C\Nc1ccc(OC)cc1)NC(=O)c1ccc(Cl)cc1Cl,145,-1,-1.9,i,1,·,·
O=c1[nH]c(CSc2nc3ccccc3[nH]2)nc2c1cnn2-c1ccccc1,100,-7,-1.8,i,0.77,11,166
O=C(c1ccccc1)c1cc(Cl)ccc1N1C(=O)C=CC1=O,80,6,·,i,0.69,i,3

# Three consecutive records from above, quoted:
SMILES,RGS16-Gao,PKD1 inh,GALR2 ag,HSV replic up,HSV replic up primary fold,INS promoter inh,INS promoter inh cell count
CCN(CC)C(=O)c1cn(C)c(=O)c2cc(OC)c(OC)cc12,97,3,-1.6,i,0.94,19,97
Nc1nc(SCC(=O)Nc2cc(S(=O)(=O)N3CCOCC3)ccc2Cl)n[nH]1,99,-4,·,i,0.91,·,·
O=c1[nH]nc(SCCS(=O)(=O)c2ccc(F)cc2)n1-c1ccccc1,100,·,·,i,1.1,·,·

# (further entries)
SMILES,RGS16-Gao,PKD1 inh,GALR2 ag,HSV replic up,HSV replic up primary fold,INS promoter inh,INS promoter inh cell count
CC(C)C(=O)Nc1cccc(NC(=S)NC(=O)c2ccc([N+](=O)[O-])cc2)c1,105,6,-2.7,i,0.86,-3,107
C/C(=C\C(=O)c1ccccc1)NNc1nc2ccccc2s1,97,-11,-0.9,i,0.9,-19,60
CCOc1cc(CNC2CCCC2)c(Cl)cc1OCC(=O)Nc1ccccc1,105,-8,·,i,0.94,·,·
NC(=S)Nc1cc2ccccc2c2ccccc12,99,12,-0.6,i,0.7,-10,92
O=S(=O)(c1ccc(-c2csc(-c3cccnc3)n2)cc1)N1CCCC1,123,-7,-0.7,i,1.1,62,122
COc1ccc(NC(=O)CSc2ccc3nnc(-c4cccnc4)n3n2)c(OC)c1,99,11,·,i,0.88,3,114
Cc1ccccc1Cn1cc(NC(=O)c2nc3ncccn3n2)cn1,165,1,-1.9,i,0.99,24,53
O=S(=O)(c1ccc(F)c(F)c1)N1CCN(Cc2ccc3c(c2)OCO3)CC1,95,-5,-2.5,i,0.9,6,87
CCN(CC)S(=O)(=O)c1ccc(N2CCOCC2)c(NC(=O)Cc2ccccc2)c1,102,11,1.5,i,1.2,·,·
O=C(O)CSc1nnc(-c2ccccc2)c(-c2ccccc2)n1,107,·,·,i,0.89,·,·
CC1(C)NC(=O)N(CC(O)CN(Cc2ccccc2)Cc2ccccc2)C1=O (stereo unspecified),122,-5,1.3,i,0.87,21,103
O=C1c2ccc([N+](=O)[O-])cc2C(=O)N1c1ccc(Cl)cn1,105,-2,·,i,0.96,·,·
Cc1n[nH]c(C)c1S(=O)(=O)N1CCCC(C(=O)NCc2ccc(F)cc2)C1 (stereo unspecified),99,1,·,i,0.97,·,·
Cc1ccc(N2C(=O)N(Cc3ccccc3C)c3ccccc3S2(=O)=O)cc1,13,-2,-1.6,i,0.86,0,87
COc1ccc(Cn2c(=O)[nH]c3cc(C(=O)NCc4ccc5c(c4)OCO5)ccc3c2=O)cc1,106,2,-2.7,·,·,-117,98
CCOc1ccc2nc(SCC(=O)Nc3ccc4c(c3)OCO4)sc2c1,65,6,-0.9,i,1.2,·,·
O=C(NCC1CCCO1)c1cnn2c1NC(c1ccccc1)CC2C(F)(F)F (stereo unspecified),103,-1,-0.2,i,0.84,5,95
Cc1ccc(NC(=O)COC(=O)c2ccco2)cc1,104,-2,·,i,1.1,·,·
O=S(=O)(c1ccc(Cl)s1)N1CCN(Cc2ccccc2)CC1,99,-7,-1.9,i,1.1,-16,111
Cc1ccc(/C=C2\CCC3=C2OC(N)=C(C#N)C3c2ccc(C)cc2)cc1 (stereo unspecified),118,-6,12*,?,·,·,·
CCOC(=O)c1c(C)oc2c1c(C(c1cccnc1)N1CCCCC1)c(O)c1ccccc12 (stereo unspecified),108,1,-4.5,i,0.76,-13,34
CN(C(=O)c1ccccn1)c1nnc(-c2ccccn2)s1,103,-8,0.4,i,0.95,-14,111
CN(C)c1ccc(S(=O)(=O)N(C)C)cc1[N+](=O)[O-],101,0,·,i,0.91,·,·
CC(C)[C@H](Nc1ncnc2c1oc1ccccc12)C(=O)O,95,·,·,i,1.1,·,·
Cc1nn(C)c(Oc2cccc(Cl)c2)c1C=O,100,-3,-0.7,i,0.94,·,·
Cc1ccsc1/C=C1\CCc2ccccc2C1=O,100,-1,-0.4,i,1.1,-9,98
c1ccc(-n2cccc2CNC2CCCCC2)cc1,103,6,-2.1,i,0.87,0,113
CN(Cc1ccccc1)C(=O)Cn1c(=O)oc2cc(S(=O)(=O)NCc3ccccc3)ccc21,99,2,-2.3,i,0.91,·,·
O=C(O)c1ccc(N=NNc2cccc([N+](=O)[O-])c2)cc1,105,-10,·,i,1,-64,94
COC(=O)Cn1c2ccc(C)cc2c2nc(C)sc21,102,-11,-2.1,i,0.98,86*,32*
CSc1nc(-c2ccccc2)nc(N2CCN(C)CC2)c1C(C)=O,100,-14,-0.6,i,0.85,·,·
COc1cc(=O)n2c(n1)SCCC2,101,2,-0.3,i,0.88,-18,66
C=CCSc1nc2c(cnn2-c2ccccc2)c(=O)n1N,101,·,·,i,1,·,·
CCCCCCCCN1C(=O)N(C)C(N(O)C(=O)NC)C1(C)C (stereo unspecified),104,-5,-2.9,i,0.72,8,72
CC(C)(C)NC(=O)c1ccccc1NC(=O)c1ccc2c(c1)OCO2,101,-3,·,i,0.96,·,·
Cc1c(C(=O)NC2CCCc3ccccc32)oc2ccc(S(=O)(=O)N3CCCCC3)cc12 (stereo unspecified),194,-1,-1.1,i,1.1,-7,87
Cc1ccc(C(=O)COC(=O)CNC(=O)COc2ccccc2C)cc1C,98,2,-2.7,i,0.72,26,79
C=CCNC(=S)NNC(=O)c1ccc(OC(C)C)cc1,114,-1,-2.9,i,0.99,-21,98
C=CCc1c(C)nc(C)nc1N/N=C/c1ccccc1O,105,4,-1.5,i,0.9,8,171
O=S1(=O)N=C(N/N=C/C=C/c2ccccc2)c2ccccc21,53,-6,-1.1,i,1,7,113

# Of the compounds above, these contain a COOH group.
SMILES,RGS16-Gao,PKD1 inh,GALR2 ag,HSV replic up,HSV replic up primary fold,INS promoter inh,INS promoter inh cell count
O=C(O)CSc1nnc(-c2ccccc2)c(-c2ccccc2)n1,107,·,·,i,0.89,·,·
CC(C)[C@H](Nc1ncnc2c1oc1ccccc12)C(=O)O,95,·,·,i,1.1,·,·
O=C(O)c1ccc(N=NNc2cccc([N+](=O)[O-])c2)cc1,105,-10,·,i,1,-64,94

# Remaining list, next part:
SMILES,RGS16-Gao,PKD1 inh,GALR2 ag,HSV replic up,HSV replic up primary fold,INS promoter inh,INS promoter inh cell count
Cc1cccc(-c2nnc(SCC#N)n2-c2ccccc2)c1,101,8,-1.9,i,0.97,-77,85
COc1cc(C(=O)NNC(=O)c2ccc(NC(C)=O)cc2)cc(OC)c1OC,11*,-3,·,i,0.85,-21,99
CC(C)=C1SC(N2CCN(c3cccc(C(F)(F)F)c3)CC2)=NC1=O,99,-1,-2.2,i,0.85,34,84
C=C(C)CNC(=S)Nc1cccc(S(=O)(=O)NC2=NCCC2)c1,100,0,·,i,1.2,·,·
COc1ccc(CCC(=O)N(C)CC(=O)Nc2ccc(N3CCOCC3)cc2)cc1,103,-1,·,i,1.1,30,115
O=C(Nc1nnc(C2CCCCC2)s1)c1cccs1,101,-2,-1.8,i,1.3,11,60
CCCN1C(=O)/C(=C\C=C2\N(CC)c3ccccc3C2(C)C)SC1=S,225,31,·,?,·,·,·
CCOc1ccc(NS(=O)(=O)c2ccc(NS(C)(=O)=O)cc2)cc1,86,-5,-1.5,i,1,31,125
O=C(O)CN(CCO)CCN(CC(=O)O)CC(=O)O,104,-2,-0.5,i,1,14,126
CC(=O)Oc1c(C)c(=O)n(C)c2ccccc12,91,-2,-1.6,i,0.96,-16,73
CCN(CC)C(=O)Cn1cc(S(=O)(=O)CC(=O)NCCc2ccc(OC)c(OC)c2)c2ccccc21,95,-11,·,i,0.99,-82,63
O=c1c([N+](=O)[O-])c(N2CCCC2)c2ccccc2n1-c1ccccc1,103,-1,·,i,0.94,·,·
CC(Cc1cccs1)NC(=O)Nc1ccc(Cl)cc1 (stereo unspecified),101,10,-2.6,·,·,35,97
Cc1sc(NC(=O)c2ccccc2)c(C(=O)NCCN(C)C)c1C,108,0,-3.6,i,0.82,3,137
CCN1CCCC1CNC(=O)c1c(O)c2c([nH]c1=O)CCCC2 (stereo unspecified),126,3,-1.7,i,0.84,-31,112
O=P(O)(O)c1ccccc1OCc1ccccc1,102,7,-2.2,i,0.99,7,145
COc1cccc(/C=C/C(=O)OCC(=O)c2ccc3c(c2)NC(=O)CO3)c1OC,98,1,·,i,1.3,-18,133
CC(C)CCOC(=O)C1C2C=CC3(CN(Cc4cccs4)C(=O)C13)O2 (stereo unspecified),110,0,-1.6,i,0.89,·,·
N#Cc1cccc(NC(=O)CN2C(=O)NC(Cc3ccccc3)C2=O)c1 (stereo unspecified),99,·,·,i,0.91,·,·
CC1(C)CC(=O)C(C=NCCN2CCN(C(=S)Nc3ccc(F)cc3)CC2)=C(O)C1,92,2,0.4,i,1.4,·,·
COc1ccc(S(=O)(=O)ON=C2CC(C)(C)N(C(C)=O)C(C)(C)C2)cc1,100,8,·,i,1.1,40,147
CCn1c(=O)n(CC)c2cc(S(=O)(=O)N3CCc4ccccc43)ccc21,99,6,2.2,i,0.69,15,97
CC(=O)Nc1cc2cc(NS(=O)(=O)c3ccc(Cl)cc3)ccc2oc1=O,101,·,·,i,1.1,·,·
COc1ccc(CCCc2nnc(SCc3nc4ccccc4c(=O)[nH]3)n2C)cc1C,103,-1,·,i,0.94,·,·
Cc1nnc(NC(=O)CCC(=O)NCc2cccs2)s1,100,-4,-1.6,i,0.82,25,115
O=C(CSc1nnc(-c2ccco2)n1Cc1ccccc1)OC1CCCCC1,100,-3,2.2,i,0.91,-8,84
COc1nc(N/N=C/c2cc3c(cc2Br)OCO3)nc(N2CCOCC2)n1,102,-7,-2.0,i,0.93,·,·
CC(C)NC(=O)CSc1nc2ccccc2n1-c1ccccc1,74,-12,-1.9,i,1,0,146
COC(=O)Cc1ccc(NC(=S)NCCCN2CCOCC2)cc1,100,0,·,i,1.1,47,108
Cc1cccc(C(=O)O/N=C(\N)c2ccc(Br)cc2)c1,101,-3,-0.3,i,0.96,-31,118
O=C(NCCN1CCCC1)C1CCN(S(=O)(=O)N2CCC3(CC2)OCCO3)CC1,102,-11,-1.1,i,0.9,35,90
O=C(CN1CCCC1)N1CCCc2c1c(=O)oc1ccc(OCc3ccccc3)cc21,97,-9,-2.3,i,0.74,·,·
COc1ccc(-c2cc(C(F)F)n3ncc(C(=O)N4CCCCC4)c3n2)cc1,107,-10,-2.1,i,0.79,-57,66
COc1cc(NC(=O)COC(=O)c2ccc(C)c(S(=O)(=O)N3CCCCC3)c2)c(C)cc1[N+](=O)[O-],124,-7,-1.1,i,0.78,0,104
Cc1ccccc1C(=O)Nc1nnc(-c2ccc(F)cc2)o1,103,-1,-2.0,i,0.97,·,·
C/C=C(\C)C(=O)NCCN1C2=NC[C@H](C(C)C)N2C[C@H]1Cc1ccc(O)cc1,97,-11,·,i,0.88,·,·
O=C(CS(=O)c1ccccc1[N+](=O)[O-])Oc1ccc(Br)cc1 (stereo unspecified),97,-2,·,i,0.78,·,·
O=C(CSc1nc(-c2ccccc2)c(-c2ccccc2)[nH]1)N1CCN(S(=O)(=O)c2ccccc2)CC1,105,-2,-0.6,i,0.89,-67,124
O=CNCCCc1nc2ccccc2n1Cc1ccccc1,100,-6,-0.5,i,0.72,·,·
CC(C)c1nnc(NC(=O)CCC(=O)N2CCN(Cc3ccccc3)CC2)s1,102,-3,-2.1,i,0.98,53,142

# From PubChem BioAssay
